eIF4H FP inh: inhibitors of RNA binding by human eIF4H; inhibition, % at 35 µM; Q15056; eIF4H fluorescence polarization binding assay; actives 0.94% (n = 290,000); AID 2012;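 active = 50% or more with normal probe brightness, or confirmed in later tests; inconclusive = above 50% with abnormal brightness, or retests that disagree; inactive = below 50% or failed in later tests; about a fifth of its hits are not listed in these tables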;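 note: calls also rest on retests at 20 µM and on dose response follow-up; 0% = protein and probe with vehicle and 100% = probe without protein; strong numbers were not always called active; many hits fall short of the cut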
Rce1 inh: inhibitors of yeast Ras-converting enzyme | Q03530 | yeast membranes, quenched prenylated peptide cleavage fluorescence | calls only | actives 0.27% (n = 290,000) | AID 2563;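 active = fall in fluorescence gain of 50% or more versus controls, with final raw signal at or below 3038400; inconclusive = same 50% fall but final raw signal above 3038400; inactive = fall in fluorescence gain under 50%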;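 note: plate controls were neutral control wells for no effect and wells lacking membranes for full effect; tested at 10 µM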
Target sequence (Q03530 whole entry, looked up): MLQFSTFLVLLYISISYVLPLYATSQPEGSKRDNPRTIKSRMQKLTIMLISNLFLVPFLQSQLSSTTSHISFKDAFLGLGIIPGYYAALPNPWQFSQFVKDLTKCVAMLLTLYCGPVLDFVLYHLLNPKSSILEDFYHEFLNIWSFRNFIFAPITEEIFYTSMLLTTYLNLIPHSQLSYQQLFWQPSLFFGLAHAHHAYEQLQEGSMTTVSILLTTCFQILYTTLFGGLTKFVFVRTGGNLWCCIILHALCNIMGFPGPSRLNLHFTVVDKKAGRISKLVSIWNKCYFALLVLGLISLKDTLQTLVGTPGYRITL
CSC inhib: cancer stem cell inhibition; AID 2717; inhibition, % at 7.5 µM; cancer stem cell-like cells viability, luminescence; actives 1.1% (n = 300,000);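 active = mean at 75% or more and at least half the replicates too; inconclusive = mean and replicates disagree; tested in HMLE shEcad cells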;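 note: 0% = median of negative and 100% = median of positive control wells; the first replicate is given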
PABP polyA inh: blocks human PABP binding to poly(A) RNA; fluorescence polarization; AID 2014; actives 1% (n = 290,000); inhibition, % at 35 µM;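 active = 50% or more with normal probe brightness, or confirmed in later tests; inconclusive = above 50% with abnormal brightness, or retests that disagree; inactive = below 50% or failed in later tests; about a fifth of its hits are not listed in these tables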;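 note: calls also rest on retests at 20 µM and on dose response follow-up; controls were probe without protein and protein plus probe with vehicle; some compounds called inactive have numbers as strong as hits; many hits fall short of the cut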
Target sequence (P11940 whole entry, looked up): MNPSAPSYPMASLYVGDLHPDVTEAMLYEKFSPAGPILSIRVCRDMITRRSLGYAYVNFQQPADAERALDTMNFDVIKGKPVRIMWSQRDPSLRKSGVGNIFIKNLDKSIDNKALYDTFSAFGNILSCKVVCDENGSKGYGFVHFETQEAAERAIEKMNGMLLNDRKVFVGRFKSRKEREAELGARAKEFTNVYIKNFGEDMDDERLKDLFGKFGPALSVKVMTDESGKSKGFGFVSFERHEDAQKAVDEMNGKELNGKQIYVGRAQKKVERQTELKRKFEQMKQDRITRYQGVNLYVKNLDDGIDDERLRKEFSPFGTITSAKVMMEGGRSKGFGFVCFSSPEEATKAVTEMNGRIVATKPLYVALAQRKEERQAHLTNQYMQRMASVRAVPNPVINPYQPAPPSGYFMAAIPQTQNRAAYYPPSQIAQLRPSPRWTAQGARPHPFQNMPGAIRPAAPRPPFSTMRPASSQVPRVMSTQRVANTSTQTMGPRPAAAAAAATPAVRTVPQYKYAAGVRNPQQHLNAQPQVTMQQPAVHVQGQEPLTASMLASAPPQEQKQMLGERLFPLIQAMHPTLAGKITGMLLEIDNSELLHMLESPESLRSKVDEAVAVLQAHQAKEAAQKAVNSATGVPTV
Env fusion inh: HIV envelope-mediated fusion inhibition; HeLa-JRFL Env/CEM21 cell fusion, luciferase; inhibition, % at 12.3 µM; actives 1.1% (n = 360,000); AID 651610;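 active = mean replicate inhibition score of at least 50 and every replicate individually at or above 50; inconclusive = only one of the two criteria met; inactive = mean below 50 and not all replicates reaching 50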;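 note: 0% = plate neutral controls and 100% = maraviroc near 300 nM; one replicate is shown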
UUG fidelity: modulators of start codon recognition fidelity in yeast. actives 0.13% (n = 350,000). activity score, % at 18.7 µM. S. cerevisiae UUG-firefly luciferase reporter, luminescence/redox ratio;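 active = replicate mean at a twofold rise or more, about +100% in these data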;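 note: firefly luciferase made from a UUG start codon reports start codon fidelity; reporter light over untreated wells divided by growth signal over untreated wells; some hits fall short of that in this replicate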
MT1-MMP act inh: inhibitors of human MT1-MMP activation; P50281; HT1080 RFP-PRO-GFP cells, GFP/RFP ratio fluorescence, overnight; percent of plate control window, DMSO zero; GFP/RFP ratio change, % at 20 µM; actives 0.061% (n = 360,000);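 active = GFP/RFP ratio change of at least 30% with cell ATP level not reduced by more than half and red fluorescence within 50% of control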; note: strong numbers were not always called active
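Test system: HT1080 RFP-PRO-GFP cells; Benchmarks: DMSO and RFP-L50D-GFP cell wells; Timing: cells overnight before dosing, compound overnight, 37 °C, 5% CO2; Compound: one 20 µM compound dose with 1% DMSO; Read-out: GFP/RFP fluorescence ratio.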
PABP polyA inh retest: recorded beside PABP polyA inh, whose call it bears; inhibition, %; compound at 20 µM; confirmation repeats;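 mean of two retest wells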
MT1-MMP act inh RFP: also measured in MT1-MMP act inh; calls as there; RFP signal change, %; measured here: RFP expression control read;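 0 = vehicle wells; hits needed this value within 50% of zero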
Starred values were filed as active, the others as inactive; i = inactive; ? = inconclusive; nt = no result given; & = joins results of further samples; ! = repeats disagree; [ ] = another dose, or the depositor's remark.

SMILES	eIF4H FP inh	Rce1 inh	CSC inhib	PABP polyA inh	Env fusion inh	UUG fidelity	MT1-MMP act inh	MT1-MMP act inh RFP	others
CC1CCCCC1NC(=O)c1cc(S(=O)(=O)N2CCOCC2)ccc1Cl (stereo unspecified)	nt	nt	-1	nt	-2	1	6	-1
CC(Oc1ccccc1)C(=O)N1CCN(c2ncccn2)CC1 (stereo unspecified)	nt	nt	7	nt	nt	-14	-5	-2
Cc1ccc(N(CC(=O)NCCSCc2ccco2)S(=O)(=O)c2ccc(C)cc2)cc1	7	i	8	-8	nt	-6	-9	-12
O=C(Cn1ncc2c1-c1ccccc1OC2)N(Cc1ccco1)C1CCCCC1	-4	i	-12	4	-8	1	3	2
CC1=C(C(=O)NCCN2CCOCC2)C2(CCC(C)CC2)OC1=O (stereo unspecified)	-11	i	-13	-8	-28	-21	0	-1
CCc1nnc(NC(=O)c2ccc(N(C)S(=O)(=O)c3ccccc3)cc2)s1	-3	i	nt	5	8	-9	0	-9
COC(=O)c1ccc(NC(=O)Nc2ccc(OC)c(OC)c2)cc1	-4	i	8	15	0	nt	6	2
CC1=NNC(=O)C1C(c1cccc(O)c1)C(C#N)C#N (stereo unspecified)	3	i	-37	2	4	nt	4	7
CCOc1ccc(C2C3=C(CC(C)(C)CC3=O)N(CCCOC)C3=C2C(=O)CC(C)(C)C3)cc1OC	nt	nt	nt	nt	-14	-11	0	7
CCN(Cc1ccccc1)Cc1nc(CCc2ccccc2)no1	1	i	7	-8	9	nt	1	-1
Cc1cc2[nH]c(=O)c(=O)[nH]c2cc1S(=O)(=O)NC1CCC(C)CC1 (stereo unspecified)	-4	i	-4	-11	-5	-8	5	8
CN(C)c1ccc(C(=O)OCC(=O)N2CCCC2)cc1	-7	i	-15	9	-7	-6	0	5
COc1cc(CNC2CCCCC2OC)cc(OC)c1OC (stereo unspecified)	3	i	-17	17	4	nt	-3	0
Cc1c(NC(=O)C2CCCO2)cccc1[N+](=O)[O-] (stereo unspecified)	-2	i	nt	-9	-22	-21	4	6
COc1ccc(CCNC(=O)c2cc(S(=O)(=O)N3CCC4(CC3)OCCO4)ccc2F)cc1OC	4	nt	3	2	4	nt	3	-6
Cc1ccc(C(=O)N/C(N)=N/c2nc3ccccc3o2)cc1	-3	i	-11	2	nt	-9	9	1
COc1ccc(CNC(=O)CCCN2C(=O)c3ccccc3C2=O)cc1	-10	i	-3	-3	11	4	nt	nt
O=C(Nc1ccc2c(c1)OCO2)c1ccc2nc([C@@H]3O[C@H](CO)[C@H](O)[C@H](O)[C@H]3O)[nH]c2c1	nt	nt	nt	nt	-8	-37	-2	12
OCCNc1ncnc2ccc(Br)cc12	-7	i	-18	-8	nt	-12	-2	-13
CC1C(=O)CC(c2ccccc2)N(C)C1c1ccccc1 (stereo unspecified)	-7	i	-5	-8	-8	-5	14	4
CCCN1CCC(NC(=O)Nc2ccc(Br)cc2)CC1	7	i	-7	8	5	1	7	2
OCCC1CN(Cc2cccc(OC3CCCC3)c2)CCN1Cc1ccsc1 (stereo unspecified)	-14	i	29	1	-17	nt	1	2
CS(=O)(=O)Nc1ccc(S(=O)(=O)NCCc2ccccc2)cc1	-5	i	-12	4	0	nt	3	-1
N#CN/C(=N\S(=O)(=O)c1ccccc1)c1ccccc1	-1	i	-11	-3	-14	1	1	1
CCOc1ccc(C(=O)CCC(=O)N(CC)CC(=O)NCc2ccc(Cl)cc2)cc1	-6	i	-1	-7	-38	15	-3	-4
N#Cc1c(Cl)cccc1-n1ccnc1	-1	i	9	6	-84	-11	-6	4
Cc1noc(C)c1C(=O)NC1=NCCS1	-6	i	7	4	9	1	-14	-5
CS(=O)(=O)C1=C(O)C(=O)N(CCCC(=O)O)C1c1ccccc1F (stereo unspecified)	-4	i	-8	16	-23	-2	-9	-1
N/C(=N\OC(=O)CCCOc1ccccc1)c1ccccc1	0	i	11	-6	18	nt	3	5
CCc1nc2ccc(C(=O)N3CCN(S(=O)(=O)CC)CC3)cn2c1N(C)C(=O)C1CCCCC1	nt	nt	nt	nt	14	-8	-1	-2
COc1cc(C2NC(=O)C(C#N)=C(Nc3cccc(C)c3)S2)ccc1O (stereo unspecified)	6&-9	i	-8	14&0	8	nt	0	4
O=C(NCCS(=O)(=O)NCc1ccc(F)cc1)c1ccccc1	nt	i	-6	nt	1	-8	0	0
COc1ccc(CCNC(=O)C2CCN(C(=O)c3cccs3)CC2)cc1	0	i	1	9	-5	nt	1	1
C=CCSc1nc(N)c(C(=O)Nc2ccccc2)cc1C#N	2	i	9	5	-62	-5	2	-4
COc1ccccc1N1CC(C(=O)NCCN2C(=O)S/C(=C\c3cccnc3)C2=O)CC1=O (stereo unspecified)	nt	nt	-10	nt	nt	-15	-2	1
COc1ccc(C(=S)N2CCCC2)cc1Br	-1	i	-1	14	6	-11	-2	0
S=C(NCc1ccco1)Nc1ccc(N2CCOCC2)cc1	18	i	1	-7	27	-12	4	7
CCCCN(CC)c1nc(N)c2c(N)nc(OCC)cc2c1C#N	49	i	22	6	-17	-17	-8	-1
c1cc2cn[nH]c2cc1NC1CCCCCC1	44	i	-11	45	nt	nt	-5	-3
O=C(O)CC1(CC(=O)Nc2cc(F)ccc2Cl)CCCCC1	0	i	-5	8	5	-11	1	5
CC1(C)CC(=O)C(C(c2ccc(F)cc2)C2C(=O)CC(C)(C)CC2=O)C(=O)C1	-2	i	-5	-5	5	nt	3	4
c1ccc(Cc2nnc(N3CCOCC3)c3ccccc23)cc1	-5	i	-1	2	nt	3	-2	-2
CC(=O)Nc1nnc(SCC(=O)Nc2ccc3c(c2)OCCO3)s1	13	i	7	40	6	8	-2	-1
Cc1ccc(/C=C/C(=O)OCC(=O)Nc2cccc(S(=O)(=O)N(C)C)c2)o1	8	i	-3	6	-44	nt	3	6
CCn1c(/C=C/c2ccccc2F)nc2ccccc2c1=O	-4	i	3	-5	9	-22	1	-4
CC(=O)c1ccc(C(=O)N2CCCC(CO)(Cc3ccccc3C)C2)s1 (stereo unspecified)	-18	i	nt	1	2	2	5	0
CCCCNC(=O)O[C@H]1C[C@@H]2CCN3C(=O)CCC[C@H]([C@H]1Cc1ccccc1)[C@H]23	0	i	10	-3	56*	-9	3	3
O=C(NCCN1CCOCC1)C1CCC(=O)N1Cc1ccccc1Cl (stereo unspecified)	-9	i	-20	-4	nt	-17	-1	4
Cc1ccc(S(=O)(=O)N2CCOCC2)cc1C(=O)NCCN1C(=O)S/C(=C\c2ccccc2Cl)C1=O	12	i	-4	0	38	nt	-1	-5
CCOC(=O)C1=C(N)Oc2cc(C)[nH]c(=O)c2C1c1ccncc1 (stereo unspecified)	5	i	2	-1	nt	-8	-3	5
N/C(=N\OC(=O)c1ccc(Br)cc1)c1ccccc1	-10	i	1	-6	-310	nt	-1	1
COc1ccc(S(=O)(=O)N(C)C(C)CCc2ccco2)cc1 (stereo unspecified)	9	i	-6	-2	1	-4	-5	-3
CCC(=O)Nc1ccc(Cl)c(NC(=S)NC(=O)COc2ccccc2)c1	-4	i	-8	0	0	nt	5	8
CC1CN(S(=O)(=O)c2ccccc2)CC(C)O1 (stereo unspecified)	-7	i	2	0	-6	-6	5	1
CCOc1ccc(N=C(/C(C(=O)C(=O)N2CCOCC2)=C(/O)c2ccccc2)c2ccccc2)cc1	2	i	-5	-16	?	nt	0	3
Cc1ccc(C)c(-n2c(Cc3cc(=O)[nH]c(=O)[nH]3)nnc2SCC(=O)NCc2ccco2)c1	nt	nt	7	nt	-21	-5	-6	2
Cc1cccc(N2CCN(C(=O)C3CCC(=O)N(C4CC4)C3)CC2)c1C (stereo unspecified)	8	i	3	-8	-3	3	-2	-4
CC(NC(=O)CN(C)CC(=O)Nc1ccc(Cl)cc1)c1ccc(F)cc1 (stereo unspecified)	nt	nt	-13	nt	-12	-3	3	1
CCCNC(=O)c1nnsc1S(=O)(=O)c1ccc(Cl)cc1	-6	nt	nt	2	-15	nt	-8	-14
COc1ccc(S(=O)(=O)N2CCN(C(=O)c3ccco3)CC2)cc1C(C)(C)C	-4	i	-20	2	-18	-14	3	-2

The final 3 compounds of the section above come first, to join the parts.
SMILES	eIF4H FP inh	Rce1 inh	CSC inhib	PABP polyA inh	Env fusion inh	UUG fidelity	MT1-MMP act inh	MT1-MMP act inh RFP	others
CC(NC(=O)CN(C)CC(=O)Nc1ccc(Cl)cc1)c1ccc(F)cc1 (stereo unspecified)	nt	nt	-13	nt	-12	-3	3	1
CCCNC(=O)c1nnsc1S(=O)(=O)c1ccc(Cl)cc1	-6	nt	nt	2	-15	nt	-8	-14
COc1ccc(S(=O)(=O)N2CCN(C(=O)c3ccco3)CC2)cc1C(C)(C)C	-4	i	-20	2	-18	-14	3	-2
Cc1ccc(NC(=O)COC(=O)C(NS(=O)(=O)c2ccc(Cl)cc2)C(C)O)cc1C (stereo unspecified)	-5	i	2	4	-25	nt	1	0
CC(C)N(C(=O)COC(=O)c1cccc(C(=O)OCC(=O)N(C(C)C)C(C)C)n1)C(C)C	6	i	19	-1	5	nt	3	1
COc1ccc(OC)c(NC(=O)c2[nH]c(C)c(C(C)=O)c2C)c1	0	i	-4	-2	-10	-11	5	13
CC(C)(C)NC(=O)NC(=O)COC(=O)c1ccc(OC(F)(F)F)cc1	-9	i	6	-8	-23	nt	2	4
CCCc1noc2c1/C(=N\O)CC(CC(C)SCC)C2 (stereo unspecified)	4	i	0	4	nt	-1	8	-8
COc1cc(NS(=O)(=O)c2ccc(NC(C)=O)cc2)ncn1	-12	nt	5	4	-21	-6	3	1
O=C(O)c1cccn2c(=O)c3ccccc3nc12	26	i	9	13	-4	81	-6	0
CCN(CC)C(=O)Cn1cc(S(=O)(=O)CC(=O)NC2CCCCC2)c2ccccc21	-10	i	19	-4	-9	-6	-4	-1
C#CC[N+](C)(C)CC#Cc1ccc(C)cc1	2	i	-10	2	-15	nt	2	5
Cc1cc(C)c(OCC(=O)Nc2cccc(NC(=O)c3ccco3)c2)c(Br)c1	0	i	-9	-6	nt	1	3	-9
CC(=O)c1cccc(-c2ccnc3c2CC(C(=O)Nc2ccc(Cl)cc2)O3)c1 (stereo unspecified)	nt	nt	nt	nt	9	0	0	-18
O=C(Cc1c(F)cccc1Cl)NCCN1CCOCC1	2	i	-5	-10	11	-7	-1	2
CC1(C)Nc2ccccc2C(=O)N1c1ccc(Br)cc1	nt	i	18	nt	-417	nt	6	2
Cn1cnc([N+](=O)[O-])c1Cl	7	i	-7	-3	0	-21	0	-1
O=C(C1=NN(c2ccccc2)C2C(=O)N(c3cccc(Cl)c3)C(=O)C12)c1ccccc1 (stereo unspecified)	?	nt	2	0.3*	nt	-21	-112	2	PABP polyA inh retest=124*
C[C@H]1CN([C@@H](C)CO)C(=O)c2cc(C#CCC3CCCC3)cnc2O[C@@H]1CN(C)C(=O)CC1CC1	nt	nt	nt	nt	-22&-8[16.7 µM]	121*!	0	0
Cc1ccccc1CSc1nnc(-c2ccco2)n1Cc1ccco1	4	i	-13	12	11	nt	-1	-2
Cc1ccc(S(=O)(=O)NCCCC(=O)O)cc1	-4	i	-6	0	11	nt	3	5
Cc1ccc(/C=C(\C#N)C(=O)NC(C)c2ccccc2)o1 (stereo unspecified)	6	i	-14	4	-13	8	-4	4

Screening results: PubChem BioAssay, several laboratories
